gsp agonist = qHTS for Agonist of gsp, the Etiologic Mutation Responsible for Fibrous Dysplasia/McCune-Albright Syndrome: qHTS; gsp mutant cells, cAMP HTRF, 30 min; control for the full effect not named in the record; Potency, µM (doses to about 76.9 µM), for inactives: top-dose activation (cAMP increase), actives largely listed as activators; 340,000 tested, 0.13% active; active = well fitted activation curve with a large enough effect; inconclusive = small, poorly fitted or top-dose-only effect, or another doubt; inactive = no such curve, though single readings can be large or run the other way; cell line not stated here;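 also: phosphodiesterase inhibitor Ro 20-1724 added with compounds to block cAMP breakdown; potency is read from the fitted curve at half-maximal effect; nearly all actives have a fitted effect of over 60% in size; about a fifth of the inactives were tested at one dose only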
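Cells in DMEM/10% FBS with G418 were pretreated with compounds in DMSO plus […] (300 uM stock) for 30 min at 37C. cAMP was measured by HTRF (cAMP-d2 plus anti-cAMP antibody-K) after 30 min at room temperature.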
ClpP mod = qHTS Assay for Activators of ClpP; Potency, µM (series often up to 57.5 µM), for the others: at the top dose activity change, negative = active; 340,000 tested, 1.9% active; ATP-dependent Clp protease proteolytic subunit (Bacillus subtilis (strain 168)), P80244; purified B. subtilis ClpP, FRET peptide cleavage, 20 min; active = well fitted falling curve with a large enough effect; inconclusive = small, poorly fitted or top-dose-only effect; inactive = no such curve, though single readings can be large or run the other way; also: potency is read from the fitted curve at half-maximal effect; the source files actives as falling curves though it sought activators and does not explain the sign; nearly all actives have a fitted effect of over 65% in size; many hits overshoot -100%
Target sequence (P80244 whole entry, looked up): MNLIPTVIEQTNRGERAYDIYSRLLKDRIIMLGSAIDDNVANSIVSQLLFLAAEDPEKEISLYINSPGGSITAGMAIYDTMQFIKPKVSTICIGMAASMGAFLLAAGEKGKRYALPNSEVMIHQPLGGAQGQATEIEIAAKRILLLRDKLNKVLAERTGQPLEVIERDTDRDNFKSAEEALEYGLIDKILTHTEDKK
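Buffer: 100 mM Tris/HCl pH8, 100 mM KCl, 0.05% low protease BSA, 2.5% glycerol, 0.01% Tween-20. ClpP 10 microg/mL final; 20 min RT; delta FRET normalized to ADEP and DMSO controls.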
gsp antag = qHTS for Antagonists of gsp, the Etiologic Mutation Responsible for Fibrous Dysplasia/McCune-Albright Syndrome: qHTS; Potency, µM (top dose mostly 76.9 µM), for the others: at the top dose activity change, negative = inhibition, usual class: inhibitors; 340,000 tested, 0.4% active; gsp-mutant cells, cAMP HTRF, 30 min; control for the full effect not named in the record; active = falling curve of any shape with a large fitted effect; inconclusive = falling curve, mostly with a smaller effect; inactive = flat or rising curve; cell line not stated here;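 also: intracellular cAMP measured with PDE inhibitor Ro 20-1724 present during compound exposure; potency is read from the fitted curve at half-maximal effect; % is scaled to controls: 0 for no effect and ±100 for the full control effect; nearly all actives have a fitted effect of over 65% in size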
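Cells, 2000/well, grown 16–24 h in DMEM 10% FBS with 0.5 mg/ml G418, then compounds plus […] (300 uM addition stock), 30 min at 37C. cAMP read by HTRF (cAMP-d2 and anti-cAMP antibody-K in lysis buffer) after 30 min RT.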
TRPV1 potentiator = HTS Assay for Compounds that Act as Potentiators of the Vanilloid Receptor 1; 320,000 tested, 0.02% active; Transient receptor potential cation channel subfamily V member 1 (Homo sapiens), Q8NER1; potentiation, % at 8.33 µM; TRPV1-expressing cells, Fluo-8 calcium influx, capsaicin EC20 potentiation; host cell line not named in the record; control for the full effect not named in the record; AID 540277, 2011; active means potentiation above 80%; inconclusive means 30% to 80%; inactive means below 30%; also: 0% is about no effect
Target sequence (Q8NER1 whole entry, looked up): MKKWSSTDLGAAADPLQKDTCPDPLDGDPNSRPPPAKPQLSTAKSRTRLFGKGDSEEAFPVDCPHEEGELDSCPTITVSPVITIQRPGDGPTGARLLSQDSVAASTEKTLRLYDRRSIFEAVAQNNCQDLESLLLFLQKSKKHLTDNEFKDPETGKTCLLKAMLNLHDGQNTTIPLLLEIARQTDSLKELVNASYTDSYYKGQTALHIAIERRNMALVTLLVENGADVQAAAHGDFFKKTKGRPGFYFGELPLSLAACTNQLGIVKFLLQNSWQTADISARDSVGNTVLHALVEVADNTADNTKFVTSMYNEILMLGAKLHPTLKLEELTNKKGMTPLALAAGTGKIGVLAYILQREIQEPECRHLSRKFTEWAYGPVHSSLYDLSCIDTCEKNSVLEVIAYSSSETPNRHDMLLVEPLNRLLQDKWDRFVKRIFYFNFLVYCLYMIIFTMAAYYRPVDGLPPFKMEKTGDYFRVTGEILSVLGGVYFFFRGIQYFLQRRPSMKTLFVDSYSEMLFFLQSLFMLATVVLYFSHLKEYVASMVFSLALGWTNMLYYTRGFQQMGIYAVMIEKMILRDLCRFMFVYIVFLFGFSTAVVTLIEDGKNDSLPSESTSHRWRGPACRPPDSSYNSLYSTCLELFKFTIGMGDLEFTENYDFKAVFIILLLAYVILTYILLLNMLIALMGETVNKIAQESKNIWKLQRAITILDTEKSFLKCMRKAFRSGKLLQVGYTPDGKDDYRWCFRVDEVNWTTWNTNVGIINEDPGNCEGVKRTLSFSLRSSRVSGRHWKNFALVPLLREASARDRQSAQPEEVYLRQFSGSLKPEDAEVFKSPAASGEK
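Cells expressing TRPV1 were dye-loaded with Fluo-8 and read kinetically: 10 s baseline, 3 min after compound (agonist portion), then 2 min after EC20 capsaicin (allosteric enhancer portion). Calcium-bound dye fluorescence at 480/520 nm.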
CtBP-E1A blk = qHTS Assay for Inhibitors of the CtBP/E1A Interaction; CtBP / adenovirus E1A interaction (AlphaScreen); AlphaScreen GST-E1A/His-CtBP binding, 1536-well; hits give low values; control for the full effect not named in the record; activity change, % (no concentration beside the values); 340,000 tested, 0.49% active; AID 651724, 2012; in the data active means activity change below about -65%; inconclusive means about -30% to -65%; inactive means above about -30%; also: % is scaled to controls: 0 for no effect and ±100 for the full control effect; compound concentration not given in the record
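AlphaScreen with 125 nM GST-E1A and 125 nM His-CtBP (5X stocks) in Tris pH 8.0, 300 mM NaCl, BSA, Tween 20, TCEP. Compounds preincubated 2 h at 37 deg C, then glutathione donor/nickel acceptor beads added for 1 h at 37 deg C in dark.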
Sfp inh = qHTS Assay for Inhibitors of Bacillus subtilis Sfp phosphopantetheinyl transferase (PPTase); AID 1490, 2009; Biochemical Sfp PPTase activity, qHTS; 310,000 tested, 3.5% active; Potency, µM, for inactives: max response, negative = inhibition, actives largely listed as inhibitors; 4'-phosphopantetheinyl transferase ffp (Bacillus subtilis), Q9F4F7; active = well fitted inhibition curve with a large enough effect; inconclusive = small, poorly fitted or top-dose-only effect, or another doubt; inactive = no such curve, though single readings can be large or run the other way;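 also: the enzyme is Sfp with the accession as filed and its product quenches rhodamine fluorescence; potency is read from the fitted curve at half-maximal effect; 0% = enzyme reaction without inhibitor and -100% = no enzyme wells; top concentration of the series not given in the record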
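Reaction rates are the 30-min fluorescence difference (ex 525, em 598 nm) in wells containing 15 nM Sfp, 5 uM rhodamine-CoA and 12.5 uM BHQ-2-YbbR at pH 7.6 with 10 mM MgCl2.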
Menin MLL FP FL = qHTS Assay for Inhibitors Targeting the Menin-MLL Interaction in MLL Related Leukemias: Competition With Fluorescein Labeled MLL-derived Peptide. Fluorescence polarization, fluorescein-MLL peptide displacement from menin. FP activity change, % at 61.4 µM. 290,000 tested, under 10 active. AID 1766, 2009; inconclusive = falling polarisation curve, or a change in total fluorescence; inactive = total fluorescence flat and polarisation flat or rising; no compound was filed as active; the % refers to the polarisation; negative = inhibition;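 also: % of control where 0% means no effect; inhibitors lower the polarisation; unlabelled MLL peptide was the positive control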
* marks the source's active call; other numbers are inactive results; ? = inconclusive; . = not tested or not shown; & = joins results of further samples; [ ] = dose if it differs, or a comment. Compounds as they come; any-hit rate near 5.3%.

[1] O=S1(=O)C=C(Sc2nc3ccccc3s2)c2ccccc21
[2] Cc1nc2n[nH]c(N)c2c2c1CCCC2
[3] Cc1cccc(Oc2sc(C(=O)c3ccccc3)c(N)c2C#N)c1
[4] Cc1c(Cl)c([N+](=O)[O-])nn1CCCC(=O)NC1CCCCC1
[5] CCN(CC)C(=O)CSc1nnc(COc2ccccc2)n1CC
[6] Cc1ccc(S(=O)(=O)N(C)C)cc1NC(=O)COC(=O)c1ccc2c(c1)OCCO2
[7] NC(=O)c1ccc(NS(=O)(=O)c2ccc3ccccc3c2)cc1
[8] CC1(C)CC(=O)C(=Cc2cn(-c3ccccc3)nc2-c2ccc(Cl)cc2)C(=O)C1

Assay by compound	1	2	3	4	5	6	7	8
CtBP-E1A blk	-6	-5	11	.	2	10	-18	-3
Menin MLL FP FL	4.8	15	10	-3.2	-2.9	-1.1	0.0	4.3
TRPV1 potentiator	16	0	-5	4	-4	11	18	-15
Sfp inh	50µM*	15%	-20%	7%	15%	0%	2%	89µM*
ClpP mod	2.1%	-2.4%	14µM*	1.6%	0.3%	-7.5%	-2.9%	-4.2%
gsp antag	13%	6%	-5%	6%	-6%	-2%	3%	1%
gsp agonist	-28%	5%	-33%[inhibitor]	-5%	-6%	5%	-11%[15.4 µM]	?

[9] CCOc1ccccc1N(CC(=O)NCc1ccco1)C(=O)CCC(=O)Nc1nccs1
[10] COCOCCn1cc(CN2CCS(=O)(=O)N(Cc3ccc(-c4ccc(C)cc4)cc3)C(C(C)C)C2=O)nn1 (stereo not drawn)
[11] C=CCn1c(C(C)NC(=O)c2cccs2)n[nH]c1=S (stereo not drawn)
[12] CNC(=S)Nc1ccc(Nc2ccccc2)cc1
[13] CCOC(=O)c1ccc(CN(Cc2ccccc2)S(=O)(=O)c2cccc([N+](=O)[O-])c2)cc1
[14] Clc1ccccc1CSc1ncn(-c2ccccc2)n1
[15] COc1ccc(C(=O)CSc2nnc(CNc3ccc(C)cc3C)o2)cc1
[16] COc1ccc(Cn2c(SCc3ccc(C)cc3)nc3cc(OC)c(OC)cc3c2=N)cc1Cl

Assay by compound	9	10	11	12	13	14	15	16
CtBP-E1A blk	-2	-3	0	-2	2	28	8	-21
Menin MLL FP FL	-0.1	.	7.2	0.6	1.4	-0.7	-1.1	0.3
TRPV1 potentiator	-1	.	-3	-12	-4	3	-4	4
Sfp inh	11%	.	-8%	3%	9%	-6%	27%	4µM*
ClpP mod	.	-1.1%	-1.9%	-0.2%	-1.0%	-0.3%	-0.1%	-5.8%
gsp antag	-6%	.	5%	3%	2%	0%	4%	17%
gsp agonist	16%[15.4 µM]	-52%	-14%	-45%	-36%[inhibitor]	-31%[inhibitor]	-2%	13%

[17] CCc1ccccc1NC(=O)C1=CC(c2cccs2)=NS(=O)(=O)N1C
[18] c1ccc2c(c1)nc(NCC1CCCO1)c1nnnn12 (stereo not drawn)
[19] COc1ccc(SC[C@H](Cc2ccccc2)N2CC[C@@H](C)CCC2=O)cc1
[20] CCCCc1nnc(NC(=O)c2ccc3[nH]c(=O)c(=O)[nH]c3c2)s1
[21] S=C(NCc1ccco1)N1CCN(c2nc(-c3ccccc3)cs2)CC1
[22] COc1cc(C(=S)N2CCC(C)CC2)ccc1O
[23] NC(=O)CSCc1nc2ccccc2s1
[24] COc1ccc(-c2nnc(SCC(=O)NCc3ccco3)n2C)cc1

Assay by compound	17	18	19	20	21	22	23	24
CtBP-E1A blk	-8	4	1	.	3	0	1	3
Menin MLL FP FL	-0.6	-3.9	.	0.2	0.1	0.2	?	2.9
TRPV1 potentiator	1	-9	0	-1	-9	1	7	3
Sfp inh	14%	?	.	7%	8%	45µM*	56µM*	10%
ClpP mod	-5.9%	3.6%	-0.4%&0.2%	4.1%	-2.8%	0.3%	1.0%	-1.1%
gsp antag	-8%	3%	-25%	-5%	-47%	5%	6%	3%
gsp agonist	-23%	?	-39%[inhibitor]	6%	14%[15.4 µM]	-5%	17%	-15%

Some of the entries so far, with two lines to a compound.
Below each compound – CtBP-E1A blk | Menin MLL FP FL | TRPV1 potentiator | Sfp inh | ClpP mod | gsp antag | gsp agonist
22. COc1cc(C(=S)N2CCC(C)CC2)ccc1O
→ 0 | 0.2 | 1 | 45µM* | 0.3% | 5% | -5%
18. c1ccc2c(c1)nc(NCC1CCCO1)c1nnnn12 (stereo not drawn)
→ 4 | -3.9 | -9 | ? | 3.6% | 3% | ?
23. NC(=O)CSCc1nc2ccccc2s1
→ 1 | ? | 7 | 56µM* | 1.0% | 6% | 17%

Carrying on.
[25] COc1ccc(OCC(O)Cn2cnc(-c3ccc(Br)cc3)c2)cc1 (stereo not drawn)
[26] ClC(/C=N/n1cnnc1)=C/c1ccccc1
[27] O=C(Cn1cnc2cc([N+](=O)[O-])ccc2c1=O)NC(=O)NCc1ccccc1
[28] CSc1nnc(-c2cc(-c3ccc(C)cc3)nc3ccccc23)o1
[29] CCOc1ccc(S(=O)(=O)NCC2(N3CCCCC3)CCCCC2)cc1
[30] Cc1ccc(C2=NN(C(=O)CSc3nc(N)cc(N)n3)C(c3ccco3)C2)cc1 (stereo not drawn)
[31] CC(CNCc1ccc2c(c1)OCO2)NCc1ccc2c(c1)OCO2 (stereo not drawn)
[32] Cc1ccc(-c2cnc(C3CC3)o2)cc1S(=O)(=O)Nc1ccccc1

Assay by compound	25	26	27	28	29	30	31	32
CtBP-E1A blk	-5	0	-18	5	1	-1	-8	.
Menin MLL FP FL	-4.3	2.3	?	1.1	.	4.1	3.3	.
TRPV1 potentiator	-8	14	-9	-3	7	-2	10	10
Sfp inh	5%	12%	?	-19%	.	-3%	1%	9%
ClpP mod	-0.2%	.	.	35µM*	-0.8%	.	0.1%	-6.1%
gsp antag	?	1%	0%	-16%	6%	7%	5%	-2%
gsp agonist	8%	-2%	5%[15.4 µM]	-25%	3%	0%	-59%	?

[33] COc1cc(C(=O)OCC(=O)NC23CC4CC(CC(C4)C2)C3)cc(OC)c1OC
[34] COc1ccc(OC)c(CNc2ccc3c(c2)CCC3)c1
[35] CCCCSc1nc(C)cc(SCC(=O)N/N=C/c2ccccc2)n1
[36] CN(C#N)c1nccc(-c2cccs2)n1
[37] COc1ccc(C(=O)c2ccc(N3CCOCC3)cc2)c(OC)c1
[38] CC(C)(C)C(=O)/C=c1\s/c(=C\c2ccc(-c3ccc([N+](=O)[O-])cc3)o2)c(=O)n1CC(=O)NC(N)=O
[39] CNC(=O)NC(=O)C(C)OC(=O)c1cc2c(s1)CCCCC2 (stereo not drawn)
[40] COC(=O)CCNc1ccc2c(c1)OCCO2

Assay by compound	33	34	35	36	37	38	39	40
CtBP-E1A blk	-16	-3	11	.	5	3	2	-7
Menin MLL FP FL	.	4.7	6.6	-0.5	-0.7	?	-1.7	1.3
TRPV1 potentiator	7	1	3	?	-8	22	-5	26
Sfp inh	.	-2%	9%	4%	0%	?	19%	-1%
ClpP mod	.	.	.	3.6%	-1.3%	.	-1.3%	-3.8%
gsp antag	-12%	7%	-25%	8%	13%	-9%	8%	-11%
gsp agonist	-58%[15.4 µM]	21%	9%	22%	-6%	6%[15.4 µM]	-39%[inhibitor]	-30%[inhibitor]

[41] Cc1nc2nc(-c3cccs3)[nH]c2cc1Br
[42] CCC(Oc1ccccc1)C(=O)Nc1ccc(S(=O)(=O)Nc2cc(C)on2)cc1 (stereo not drawn)
[43] OC(CCN1CCC2CCC(C2)C1)c1ccc(Br)cc1 (stereo not drawn)
[44] CC(C)N(CC#CCC(O)(c1ccccc1)C1CCCC1)CCO (stereo not drawn)
[45] CCCCn1c(N)c(N(CCC(C)C)C(=O)COC(=O)c2ccc(CC)cc2)c(=O)[nH]c1=O
[46] CCOC(=O)C1CCN(S(=O)(=O)CCNC(=O)c2ccccc2)CC1
[47] Cc1nc(NC(=O)CSc2cc(C)c3ccccc3n2)c(Cl)cc1Cl
[48] O=C(O)CSCc1nc2cccnc2n1C1CCCCC1
[49] C=CCNC(=O)c1ccccc1NS(=O)(=O)c1ccc(OC)c(C(=O)N2CCOCC2)c1
[50] O=C(Nc1cccc(S(=O)(=O)C(F)F)c1)c1ccc(S(=O)(=O)N2CCCC2)cc1

Assay by compound	41	42	43	44	45	46	47	48	49	50
CtBP-E1A blk	-13	3	-1	6	-2	7	8	-11	7	-6
Menin MLL FP FL	.	4.7	.	1.4	.	.	22	4.9	-1.3	-3.2
TRPV1 potentiator	.	9	.	-10	1	-3	-6	-4	0	-1
Sfp inh	.	23%	.	20µM*	.	.	?	4%	0%	12%
ClpP mod	1.1%	.	1.1%	0.8%	-3.1%	.	-11%	.	.	.
gsp antag	2%	-6%	5%	7%	5%	10%	-6%	8%	-3%	?
gsp agonist	-1%[15.4 µM]	-2%	-5%[15.4 µM]	39%	-1%	-3%[15.4 µM]	?	20%	2%[15.4 µM]	-3%

Along the list, quoted from above.
CtBP-E1A blk for entries 1–12, in order: -6, -5, 11, ., 2, 10, -18, -3, -2, -3, 0, -2
Sfp inh for entries 1–12, in order: 50µM*, 15%, -20%, 7%, 15%, 0%, 2%, 89µM*, 11%, ., -8%, 3%
TRPV1 potentiator for entries 1–12, in order: 16, 0, -5, 4, -4, 11, 18, -15, -1, ., -3, -12
